# Bioassay records as filed in PubChem BioAssay.
# GLA inh pH 4.5: inhibitors of human alpha-galactosidase A at pH 4.5. P06280. purified enzyme, 4-MU-alpha-Gal fluorescence, pH 4.5. activity change, negative = inhibition, % at 105 µM. 230,000 tested, under 10 active; inconclusive = small, poorly fitted or top-dose-only inhibition, or a rising curve; inactive = flat fitted curve, though single readings scatter; no compound was filed as active;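 also: 0% = full activity with enzyme and -100% = basal without enzyme; dose as in the result columns while the protocol names 77 µM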
# miR-21 reporter: miR-21 reporter, rising signal; HeLa miR-21 FLuc reporter, luciferase, 48 h; Potency, µM (doses to about 38.3 µM), for the others: at the top dose reporter change, positive = more light; 340,000 tested, under 10 active; AID 2288; active = well fitted rising curve with a large enough effect; inconclusive = small, poorly fitted or top-dose-only effect; inactive = no such curve, though single readings can be large or run the other way;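 also: % of control where 0% means no effect; miR-21 action dims this reporter so a rising signal means less miR-21 action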
#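 HeLa cells stably expressing CMV-driven firefly luciferase with a downstream miR-21 binding sequence, endogenously expressing miR-21, were treated with titrations (up to about 40uM final) for 48 hours at 37 degree Celsius. Luciferase luminescence was read after lysis.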
# Rango release inh: inhibition of RanGTP-driven Rango-importin beta dissociation; O95149+P62826; Biochemical FRET Rango-importin beta, RanGTP-induced dissociation; Potency, µM (top dose mostly 46.1 µM), for inactives: top-dose activity change, negative = inhibition; hit rate 0.071% among 340,000; AID 540253; active means falling FRET ratio curve, often poorly fitted, with flat reads before Ran was added; inconclusive means other falling curves, or compound fluorescence or quenching; inactive means flat or rising ratio curve;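 also: potency is read from the fitted curve at half-maximal effect; % of control where 0% means no effect; nearly all actives have a fitted effect of over 45% in size; -100% = wells without RanGTP and RCC1; the record marks most hits as doubtful in a second field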
#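 Rango/importin beta premix (0.1/0.25 uM final), PBS + 1 mM DTT + 0.02% Tween-20 + 0.1% BSA; cpd 5 min RT; FRET pre-read; + RanGTP-RCC1 (0.6 uM Ran, 2 mM GTP, 0.2 uM RCC1); 45 min RT; FRET post-read, ex 430, em 486/530 nm.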
# Rango complex inh: Rango-importin beta binding inhibition; AID 540263; Potency, µM (titrated, usually from 92.2 µM), for the others: top-dose inhibition of complex formation; hit rate 0.031% among 340,000; Rango CFP/YFP FRET sensor + importin beta, 45 min; Q14974; active = rising FRET ratio curve, often small or poorly fitted; inconclusive = mostly compound fluorescence or quenching in the first reads; inactive = flat curves in all reads;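 also: potency is read from the fitted curve at half-maximal effect; 0% = DMSO wells and 100% = buffer wells lacking importin beta; nearly all actives have a fitted effect of over 15% in size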
# Target sequence (Q14974 whole entry, looked up): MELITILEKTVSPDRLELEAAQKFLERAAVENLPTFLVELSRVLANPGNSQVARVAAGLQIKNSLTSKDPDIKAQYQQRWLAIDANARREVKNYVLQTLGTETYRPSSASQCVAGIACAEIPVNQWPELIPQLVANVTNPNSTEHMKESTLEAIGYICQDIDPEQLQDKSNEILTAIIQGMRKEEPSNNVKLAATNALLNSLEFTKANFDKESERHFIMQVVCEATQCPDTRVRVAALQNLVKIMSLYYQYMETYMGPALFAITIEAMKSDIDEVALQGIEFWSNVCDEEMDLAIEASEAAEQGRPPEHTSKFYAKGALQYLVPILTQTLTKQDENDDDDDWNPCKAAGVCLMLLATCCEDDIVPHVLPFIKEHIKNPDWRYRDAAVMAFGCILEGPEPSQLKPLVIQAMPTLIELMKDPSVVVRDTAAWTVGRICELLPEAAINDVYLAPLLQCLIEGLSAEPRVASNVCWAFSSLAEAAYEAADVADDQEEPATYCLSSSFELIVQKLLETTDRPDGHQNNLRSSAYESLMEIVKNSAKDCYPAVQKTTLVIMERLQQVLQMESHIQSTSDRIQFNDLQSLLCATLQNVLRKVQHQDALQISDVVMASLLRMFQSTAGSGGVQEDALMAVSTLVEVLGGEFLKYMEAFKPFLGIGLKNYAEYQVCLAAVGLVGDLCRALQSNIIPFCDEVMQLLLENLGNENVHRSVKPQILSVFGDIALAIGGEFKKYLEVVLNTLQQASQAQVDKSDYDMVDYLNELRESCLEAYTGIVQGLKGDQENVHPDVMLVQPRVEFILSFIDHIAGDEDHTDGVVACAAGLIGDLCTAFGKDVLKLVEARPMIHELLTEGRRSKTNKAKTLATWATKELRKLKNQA
#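 FRET biosensor Rango (snurportin 1 IBB between N-terminal EYFP and C-terminal Cerulean), 50 nM in PBS/1 mM DTT/0.02% Tween-20/0.1% BSA, preincubated 5 min RT with compound; 0.125 microM importin beta added, 45 min RT, CFP/YFP FRET ratio read.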
# * marks the source's active call; other numbers are inactive results; ? = inconclusive; . = no result given; & = joins results of further samples.
# Start of the listing, in advance (two entries):
nr	structure	Rango complex inh	GLA inh pH 4.5	miR-21 reporter	Rango release inh
1	O=C(Cc1cccc2ccccc12)Nc1ccc(Br)cc1C(=O)O	-1.9%	.	-8.7%	44.6%
2	CCOc1cc(N2CCOCC2)c(OCC)cc1NC(=O)c1ccc2ncsc2c1	2.9%	.	.	18.0%

# The list itself, repeating the preview:
nr	structure	Rango complex inh	GLA inh pH 4.5	miR-21 reporter	Rango release inh
1	O=C(Cc1cccc2ccccc12)Nc1ccc(Br)cc1C(=O)O	-1.9%	.	-8.7%	44.6%
2	CCOc1cc(N2CCOCC2)c(OCC)cc1NC(=O)c1ccc2ncsc2c1	2.9%	.	.	18.0%
3	CC(=O)c1c(C)c(C)c2n1CCn1c(C)ccc1-2	?	-6.6	-0.8%	?
4	CCNC1(C(N)=O)CCN(Cc2ccccc2)CC1	1.8%	.	.	2.1%
5	Nc1ccc2nc(-c3cccnc3)[nH]c2c1	-1.4%	-3.3	-16.6%	-5.0%
6	COc1ccc(N(C)S(=O)(=O)c2cccc(C(=O)Nc3nc4ccccc4[nH]3)c2)cc1	-2.4%	-8.5	15.9%	0.7%
7	CCn1c(SCC(=O)NCCc2ccc(F)cc2)nnc1-c1cccs1	-0.3%	9.0	-11.2%	-1.1%
8	CCC12C(=Nc3c(Cl)cccc31)C[C@@H]1CCN3C(=O)CCC[C@H]2[C@H]13 (stereo partly specified)	-3.5%	.	.	4.0%
9	O=C(NCc1ccco1)c1cnn2c(C(F)(F)F)cc(-c3ccco3)nc12	?	10.9	-3.1%	?
10	O=C1CC(c2ccccc2)=C(c2ccccc2)C1	6.4%	.	.	7.6%
11	COCCNc1nc(Cl)c(C#N)s1	0.5%	5.7	-0.3%	5.2%
12	CC1CCN(C(=O)C2CCN(S(=O)(=O)c3ccc(-n4cnnn4)cc3)CC2)CC1	-0.9%	.	1.9%	?
13	COc1cc(OC)c(NC(=O)CCNC(=O)Cn2cnc3ccccc3c2=O)cc1Cl	-0.6%	-8.8	-3.6%	12.5%
14	CN(C)C1(CNC(=O)c2cccc(S(=O)(=O)NCc3ccccc3)c2)CCCCC1	-2.5%	.	.	-21.4%
15	CC(C)(C)c1ccc(C(=O)NCCn2c(N)c(C#N)c3nc4ccccc4nc32)cc1	?	22.5	9.2%	?
16	Cc1ccc(C2C(C#N)=C(N)N(c3cccnc3)C3=C2C(=O)CCC3)c(C)c1 (stereo unspecified)	2.2%	-0.7	3.8%	-0.2%
17	Cc1ccc(N2CCN(C(=O)CCc3nc4ccccc4[nH]3)CC2)c(C)c1	-0.1%	-3.0	7.8%	0.6%
18	Cc1ccc(NC(=O)CN2C(=O)N/C(=C/c3cc(C)n(-c4cccc(C(=O)O)c4)c3C)C2=O)cc1	?	-1.5	-5.3%	?
19	CC(Oc1ccc(F)cc1)c1nnc(SCC(=O)N(c2ccccc2)C2CCS(=O)(=O)C2)o1 (stereo unspecified)	3.2%	.	.	8.0%
20	O=Cc1c(N2CCN(c3ccccc3)CC2)nc2ccccn2c1=O	-0.1%	7.9	-72.1%	-0.3%
21	Cn1c(NC2CCCCC2)c(N=O)c(=O)n(C)c1=O	1.3%	0.4	0.6%	1.7%
22	FCCCOc1ccc(/C=N/OCc2c(Cl)cccc2Cl)cc1	4.1%	4.7	-9.0%	-8.0%
23	CC(C)(C)OC(=O)n1cc(C(=O)c2ccccc2O)cn1	-1.5%	.	-2.2%	1.0%
24	Cn1c2ccccc2c(=O)c2cc(C#Cc3ccccn3)ccc21	?	.	-36.0%	?
25	Cc1cccnc1NC(=O)c1cccc(S(=O)(=O)NCc2ccccc2)c1	-0.3%	.	.	-4.7%
26	Cc1ccc(NC(=O)C2C(=O)N(C)c3ccccc32)cc1 (stereo unspecified)	2.0%	3.5	-5.4%	-4.5%
27	Cc1c(Cl)cccc1NC(=S)NCC1COc2ccccc2O1 (stereo unspecified)	2.8%	-0.9	-5.6%	3.2%
28	COC(=O)c1c(NC(=O)c2ccco2)sc2c1CCC2	?	-9.8	-18.6%	-7.6%
29	O=C(COc1ccccc1)NC(=S)Nc1ccc2c(c1)Cc1ccccc1-2	-1.8%	-3.8	-2.0%	1.1%
30	Cn1cnnc1SCc1ccccc1Br	0.3%	1.5	-11.0%	4.2%
31	CCCCc1cc2c(cc1NC(=O)CN1CCCCC1)OCCO2	2.6%	-5.0	-6.9%	-10.6%
32	C#CCOCCOCCOCCNc1nc(N2CCN(C(=O)CCCCCCCCCCNC(=O)[C@H](CCCCN)n3cc(C[C@@H](C)CC)nn3)CC2)nc(N2CCN(C(=O)CCCCCCCCCCNC(=O)[C@H](CCCCN)n3cc(C[C@@H](C)CC)nn3)CC2)n1	8.4%	.	.	-4.9%
33	O=[N+]([O-])c1ccc(C(O)C23CN4CN(CN(C4)C2)C3)cc1 (stereo unspecified)	3.8%	6.4	2.3%	-9.7%
34	COCCNC(=O)C(c1ccco1)N(Cc1ccc(OC)cc1)C(=O)Cn1nnc2ccccc21 (stereo unspecified)	-1.9%	-15.0	-14.4%	11.2%
35	CCC(=O)c1ccc(OCC(=O)OCC(=O)c2cc(C)n(CC3CCCO3)c2C)cc1 (stereo unspecified)	7.0%	.	.	18.3%
36	CCOC(=O)CSc1nc2c(c(=O)n(C)c(=O)n2C)n1Cc1ccccc1F	-1.5%	5.2	0.3%	8.6%
37	COC(=O)c1sc(N)c(C(=O)OC)c1COC(=O)CNS(=O)(=O)c1cccc(C#N)c1	-2.6%	-8.2	1.5%	0.8%
38	COC(=O)c1ccc(NC(=S)NC2CC2)cc1	2.1%	-9.0	-15.4%	1.0%
39	O=C(COc1ccc(Br)cc1)Nc1ccc([N+](=O)[O-])cn1	0.9%	2.1	-5.4%	-5.7%
40	Cc1cc(N(CCO)CCO)ccc1C(c1ccc(N(CCO)CCO)cc1C)c1ccccc1Cl	0.3%	-14.7	1.8%	0.7%
41	CCOC(=O)C1CCCN(C(=O)c2cc3ccccc3cc2OC)C1 (stereo unspecified)	-3.7%	.	.	1.7%
42	Cc1nn(CC(=O)NNC(=O)c2ccc(Br)cc2)c(C)c1[N+](=O)[O-]	1.3%	.	.	16.5%
43	COc1ccc(-n2c(=S)[nH]c3cc(C(=O)NCCCN4CCCC4=O)ccc3c2=O)c(OC)c1	0.0%	1.6	-4.2%	-6.1%
44	O=C(Nc1cccc(C(=O)O)c1)/C(=C\c1ccccc1)NC(=O)c1ccccc1Cl	-3.0%	2.4	-0.4%	37.5%
45	CC(C)Oc1snc(Cl)c1C(N)=O	2.1%	10.1	1.9%	-15.3%
46	NC(=O)CSc1nnc(Cn2c(=O)sc3ccccc32)n1-c1cccc(Cl)c1	-5.4%	-4.8	-1.6%	2.2%
47	O=C(Nc1ccc2c(c1)OCCO2)C1CCN(C(=O)c2ccccc2)CC1	0.7%	1.3	-33.8%	-7.4%
48	CCCCOc1ccc(C(=O)Nc2cc(C)c(OCC(=O)N3CCOCC3)c(C)c2)cc1	-3.6%	-4.4	-2.7%	-11.3%
49	COc1ccc(-c2nn(CC(=O)NCCc3ccccc3)c(=S)n2C)cc1	1.0%	0.8	?	6.3%
50	COc1ccc(Cl)cc1NC(=O)COC(=O)C1COc2ccccc2O1 (stereo unspecified)	4.8%	.	.	11.8%
51	COC(=O)C(Cc1ccccc1)NC(=O)c1cc(=O)[nH]c2ccccc12 (stereo unspecified)	-0.5%	-3.2	-4.2%	7.8%
52	CCCNC(=O)NC(=O)COc1ccc(-c2ccc(C#N)cc2)cc1	0.7%	1.4	-3.3%	-1.0%
53	COc1ccc(S(=O)(=O)NC(CC(=O)NC2CCCC2)c2ccco2)cc1 (stereo unspecified)	2.4%	-19.9	-0.3%	-9.8%
54	O=c1c2cnn(-c3ccccc3)c2ncn1Cc1ccccc1F	4.6%	0.1	-8.7%	-1.1%
55	CCCCNC(=O)C(Cc1ccccc1)NS(=O)(=O)c1ccc2c(c1)c(=O)n(C)c(=O)n2C (stereo unspecified)	-1.4%	-2.9	-6.2%&0.4%	18.1%
56	C=CCn1c(Cc2c[nH]c3ccccc23)n[nH]c1=S	-3.0%	2.8	-0.6%	-7.0%
57	Cc1nn(-c2ccccc2)c(Cl)c1/C=N/NC(=O)c1[nH]ncc1Br	1.4%	.	-25.0%	-0.3%
58	N#Cc1ccc(COc2cccc3cccnc23)cc1	0.0%	.	-28.0%	40.5%
59	Cc1nc(Cl)c(C(=O)NCc2ccccc2)c(C)c1[N+](=O)[O-]	4.0%	.	-2.4%	4.5%
60	O=C(Nc1ccccn1)Nc1ccccc1Cl	4.3%	.	-42.0%	-24.9%

# Going on with the list.
nr	structure	Rango complex inh	GLA inh pH 4.5	miR-21 reporter	Rango release inh
61	Cc1ccc(S(=O)(=O)N2CCC(=O)N(C(COCc3cccc(Cl)c3)Cc3ccccc3)CC2)cc1 (stereo unspecified)	-2.2%	-6.2	0.5%	-4.4%
62	Cc1cc[n+](-c2[nH]c(=O)sc2/C=N/N=C(\[O-])CCn2c3ccccc3c3ccccc32)cc1	?	-10.8	2.0%	34.6%
63	COc1cccc(C2c3c(oc4ccccc4c3=O)C(=O)N2c2ccccn2)c1 (stereo unspecified)	-0.1%	2.7	-4.3%	-9.2%
64	O=C(NC1CCCCC1)C(c1cccnc1)N(C(=O)CCl)c1cccc(Cl)c1 (stereo unspecified)	-1.6%	-3.0	24.7%	-3.0%
65	CCOC(=O)CSc1nc(C)c(Oc2ccc(Cl)cc2Cl)c(=O)[nH]1	8.2%	-5.2	-0.7%	-0.6%
66	Cc1sc(NC(=O)CN2C(=O)NC3(CCCC3)C2=O)nc1-c1ccc(F)cc1	-0.7%	.	.	-1.0%
67	Cc1ccc(S(=O)(=O)N(C)c2ccc(OCC(=O)NCc3ccco3)cc2)cc1	0.5%	3.4	-3.3%	7.8%
68	CCOc1cccc(-c2nnc3sc(COc4ccccc4)nn23)c1	1.8%	-7.4	2.8%	-2.4%
69	COc1ccc(NC(=O)c2cccc(OC(=S)N3CCOCC3)c2)cc1	6.4%	-16.1	10.0%	16.3%
70	Cc1ccc(-c2cc(C(F)F)n3ncc(C(=O)N4CCc5ccccc5C4)c3n2)cc1	3.3%	3.1	2.8%	-15.2%
71	Clc1cccc(Cl)c1-c1nnc2ccc(N3CCOCC3)nn12	7.1%	-4.3	-0.9%	4.8%
72	Cc1cccc(-n2cc3c(=O)n(C)c(=O)n(C)c3c2)c1	4.1%	-3.9	-5.7%	-15.7%
73	Cc1ccc2c(c1)c1c(n2CC(O)Cn2c(C)nc3ccccc32)CCCC1 (stereo unspecified)	0.6%	1.7	-2.0%	-5.5%
74	Cc1cc(C)n2nc(NCc3ccccc3)nc2n1	-0.4%	11.4	-22.7%	0.9%
75	CCc1ccc(NC(=O)C(C)OC(=O)CC(NC(C)=O)c2ccccc2)cc1 (stereo unspecified)	1.8%	.	-3.8%	-3.1%
76	C/C(=N\NC(=O)c1csc(C)c1C)c1ccco1	2.7%	-11.3	-46.2%	-12.1%
77	O=C(NCCN1CCOCC1)C(=O)NCC1OCCN1S(=O)(=O)c1ccc(F)cc1 (stereo unspecified)	-3.5%	.	-0.5%	21.0%
78	CC1=C(C(=O)OCc2ccccc2)C(c2cccc([N+](=O)[O-])c2)NC(=O)N1 (stereo unspecified)	-2.3%	.	12.1%	-4.6%
79	CC(=O)c1cc2c(cc1NC(=O)C1CC=CCC1C(=O)O)OCO2 (stereo unspecified)	2.5%	-4.2	-2.3%	1.5%
80	O=C(Nc1ccc(F)c(F)c1)c1ccc(-n2cncn2)c([N+](=O)[O-])c1	0.0%	.	.	0.5%
81	CCCNC(=O)c1cn(CC)c2cc(N3CCN(C(=O)c4ccco4)CC3)c(F)cc2c1=O	-2.0%	.	5.8%	9.0%
82	COc1cc([N+](=O)[O-])ccc1-c1ccc(/C=N\n2cnnc2)o1	?	.	-1.2%	?

# These rows are one share of the data. The share of hits here may be higher or lower than overall.
